# Choline anaer gr: growth inhibitors of anaerobic choline-fed gram-negatives, minimal medium, absorbance; Gram-negative bacterium anaerobic choline minimal medium; hits give low values; many inactives read as strong as hits in the columns shown; calls only; hit rate 0.2% among 55,000;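 active = growth z-score on choline under -2 at 7 or 20 h with little or no fall on glycerol, limits in tiers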;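 note: stock transfer was 300 nL into about 50 µL; the organism is E. coli; final concentration not given here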
# Choline anaer gr early: further read-out of Choline anaer gr, marked with its call; z-score; measured here: choline growth z-score, timepoint 1;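 score of optical density at 7 h as mean of two plates; lower means less growth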
# Numbers without * were called inactive; i = inactive; & = joins results of further samples.
SMILES,Choline anaer gr,Choline anaer gr early
COc1ccc2oc3cc(O)cc(O)c3c(=O)c2c1,i,0.38
CC(C)CCn1c(C2CCCO2)nc2ccccc21 (stereo unspecified),i,0.16
Cn1nc(C(=O)NCc2ccccc2)c2c1CCN(C(=O)C1CC1)C2,i,-0.51
Cc1cc(C)n(-c2nc(C)c(C(=O)N(CCO)CCO)s2)n1,i,0.29
O=C(NCCN1CCCC1)c1[nH]nc2c1CCc1ccccc1-2,i,-2.28
Cc1ccc(N2C(=O)N(Cc3cc(=O)n4ccccc4n3)c3ccccc3S2(=O)=O)cc1,i,1.55
C#CCOc1ccc(C2CC(=O)Nc3c2cnn3-c2ccc3nnc(C)n3n2)cc1OC (stereo unspecified),i,-0.38
COc1ccc(NC(=O)Cn2cnc3c(sc4ncccc43)c2=O)cc1OC,i,-0.67
COc1ccc(NC(=O)c2cnn(-c3ccc(Br)cc3)c2)cc1,i,0.36
Cc1ncc2c(n1)CCN(S(=O)(=O)c1cc(Cl)ccc1Cl)C2,i,0.5
O=C(Nc1cccc2nsnc12)c1cc(-c2ccncc2)nc2ccccc12,i,1.04
CC(=O)N1CCCc2cc(S(=O)(=O)N3CCC(C(=O)N4CCN(C)CC4)CC3)ccc21,i,0.17
Cc1sc(-c2ccno2)cc1S(=O)(=O)N1CCC2(CC1)OCCO2,i,-0.35
COc1cc2ncc(C(=O)c3ccccc3)c(S(=O)(=O)c3ccccc3)c2cc1OC,i,0.63
CCN1C(=O)c2ccccc2S(=O)(=O)c2ccc(C(=O)N(C)Cc3ccccc3)cc21,i,-0.02
CCOC(=O)c1cn(CC(=O)Nc2ccc(F)cc2F)c2nc(C)ccc2c1=O,i,1.2
COc1ccc(CN2C(=O)C3CCCCC3C2=O)cc1S(=O)(=O)Nc1ccc2c(c1)OCO2 (stereo unspecified),i,0.21
CCNC(=O)N1CCc2cc(S(=O)(=O)Nc3ccc(OC)cc3OC)ccc21,i,-0.86
COc1ccc(S(=O)(=O)c2csc3c2NC(=O)CC3c2ccsc2)cc1 (stereo unspecified),i,0.22
O=C(NC1CC1)C1CCCN(c2ccnc(-c3ccc(F)cc3)n2)C1 (stereo unspecified),i,0.64
CC1(C(=O)NCc2ccccc2)CCCN(S(=O)(=O)c2ccc(F)c(Cl)c2)C1 (stereo unspecified),i,0.09
c1ccc2c(c1)CCN(CCNc1nn3nnnc3c3ccccc13)C2,i,0.46
O=C(Cn1ncc2c1-c1ccccc1OC2)N1CCCCC1,i,-1.29
Cc1cccc(NC(=O)N2CC=C(c3c[nH]c4ccccc34)CC2)c1C,i,-1.59
C=CCNC(=O)Cn1c2c(c(=O)n3nc(-c4ccc(C)cc4)nc13)CCC2,i,0.93
Cc1c(Cl)cccc1NC(=O)C1CC2CSCN2C12C(=O)Nc1ccccc12 (stereo unspecified),i,0.02
Cc1ccc(-c2c(N3CCCCC3)c(=O)c2=O)cc1,i,-0.24
CCCCOc1ccc(C(=O)Nc2ccc3c(c2)CCCN3S(=O)(=O)c2ccccc2)cc1,i,-0.69
CCc1noc(-c2ccc(NC(=O)C3CC3)cc2)n1,i,-0.28
COc1ccc(NS(=O)(=O)c2cc(/C=C\c3onc(C)c3NC(C)=O)ccc2C)cc1,i,-0.73
C=CC(C)(O)CCC1[C@@]2(C)CCCC(C)(C)C2CC[C@@]1(C)O (stereo partly specified),i,0.35
CCCCOc1ccc(S(=O)(=O)N2CCN(c3nc(C)cc(N4CCOCC4)n3)CC2)cc1,i,0.67
CCOc1ccc(OCC)c(NC(=O)C2CCCN(S(=O)(=O)c3cccc4cccnc34)C2)c1 (stereo unspecified),i,0.76
CC(C)CC(=O)N1CCc2c(c(C(=O)NCc3ccccc3)nn2C)C1,i,-0.41
O=C(Cc1ccccc1)Nc1ccccc1-c1ccc2ccccc2n1,i,0.41
COc1ccc2[nH]cc(CCNC(=O)C3CCN(c4nc5ccccc5n(C)c4=O)CC3)c2c1,i,0.17
COc1ccc(C(Nc2nc(C)cc(C)n2)c2c(NC(=O)c3ccccc3)sc3c2CCCC3)cc1 (stereo unspecified),i,2.73
O=C(NCCCN1CCN(c2ccccc2F)CC1)c1cc(CN2CCOCC2)on1,i,-0.67
Cc1ccc(NC(=O)c2ncn(-c3ccccc3)n2)cc1Cl,i,0.2
O=C(CCc1cn(-c2ccccc2)nc1-c1ccc2c(c1)OCO2)NCC1CCCO1 (stereo unspecified),i,-0.28
Cc1noc(C)c1S(=O)(=O)N1CCC(CC(=O)N2CCN(S(C)(=O)=O)CC2)CC1,i,-0.83
CCCS(=O)(=O)N1CCCN(C2=NS(=O)(=O)C(c3cccc(Cl)c3)=C2C)CC1,i,0.82
NCCCC[C@H](N[C@@H](CCc1ccccc1)C(=O)O)C(=O)N1CCC[C@H]1C(=O)O,i,0.38&-0.06
Cc1ccc(CNC(=O)C2(C)CCCN(S(=O)(=O)c3cc(C)c(C)cc3C)C2)cc1 (stereo unspecified),i,1.32
Cc1cc(C)n(C(=O)c2sccc2S(=O)(=O)N(C)c2ccc(C)c(Cl)c2)n1,i,-1.13
CCCCN(Cc1nc2nc(C)cc(C)n2n1)C(=O)c1ccc(C)cc1,i,-0.11
COc1ccc(CNC(=O)c2[nH]c3ccc(OC)cc3c2N2CCCC2=O)c(OC)c1,i,0.39
Cn1c(=O)c2ccc(C(=O)NC3CCCC3)cc2n2c(=O)n(CC(=O)c3ccc(Cl)cc3)nc12,i,-0.04
COc1cc(NC(=O)N2CCCC2c2c(C)noc2C)cc(OC)c1 (stereo unspecified),i,-0.57
COCCNC(=O)C1CCN(c2ccc(Cl)cc2)C1=O (stereo unspecified),i,-0.67
COc1ccc(C2(C(=O)N3CCc4[nH]cnc4C34CCCCC4)CC2)cc1,i,0.68
Cc1cc(C)cc(NC(=O)c2ccc(-c3ncccc3-n3c(C)ccc3C)cc2)c1,i,0.33
CCC(=O)N1CCCc2ccc(NC(=O)c3c(-c4ccccc4Cl)noc3C)cc21,i,1.17
O=C(CNC(=O)COc1ccccc1)NCc1cscn1,i,-1.95
Cc1cc(C)c(S(=O)(=O)NCCc2sc(-c3ccc(F)cc3)nc2C)c(C)c1,i,1.25
Cc1sc(-c2nc(C(C)C)cs2)cc1S(=O)(=O)N1CCCCCC1,i,-0.08
CCCc1cc(C2CCCN2Cc2ccc(OC(C)C)c(OC)c2)no1 (stereo unspecified),i,0.52
Cc1sc(C)c(S(=O)(=O)N2CCCCC2)c1-c1cc(C(F)(F)F)on1,i,0.17
CS(=O)(=O)Nc1ccc(-c2noc(C3(c4ccccc4)CC3)n2)cc1,i,-2.05
Cc1ccc(C2CC(=O)N(c3ccc(F)c(C)c3)C(=O)C2)cc1,i,1.03

# Next section, overlapping the part above by 2 compounds.
SMILES,Choline anaer gr,Choline anaer gr early
CS(=O)(=O)Nc1ccc(-c2noc(C3(c4ccccc4)CC3)n2)cc1,i,-2.05
Cc1ccc(C2CC(=O)N(c3ccc(F)c(C)c3)C(=O)C2)cc1,i,1.03
Cc1noc(C)c1C1CCCN1C(=O)Cn1nc(C(F)(F)F)c2c1CCCC2 (stereo unspecified),i,-1.67
Cn1ccc2cc(S(=O)(=O)N3CCC(C(=O)N4CCN(c5ccccn5)CC4)CC3)ccc21,i,0.45
CCCCNC(=O)Cn1cnc2nc(SCC)ncc2c1=O,i,-0.42
Cn1ccc2cc(S(=O)(=O)N3CCN(C(=O)Nc4ccc(Br)cc4F)CC3)ccc21,i,-0.22
O=S(=O)(c1ccccc1)N(CC(F)(F)F)c1ccc(C(O)(C(F)(F)F)C(F)(F)F)cc1,i,0.6&0.28
Cc1cc(-c2nc(-c3cccc(Cl)c3)no2)n[nH]1,i,0.57
CCc1nc(-c2csc(S(=O)(=O)N3CCC(C(=O)N4CCC(C)CC4)CC3)c2)no1,i,-0.17
Cc1nc(-c2cc(S(=O)(=O)NCC(=O)N3CCN(c4ccccc4)CC3)c(C)s2)no1,i,0.52
O=C(NCc1cccc(Cl)c1)c1cc2ccccn2c1,i,2.14
O=S(=O)(Nc1ccc(Cl)cc1)c1cc(-c2noc(C3CC3)n2)cs1,i,-0.29
O=c1[nH]c2cc3c(cc2c(=O)n1CCc1nc(-c2ccc4c(c2)OCO4)no1)OCO3,i,1.3
CSc1ccc([C@H]2CN3CCC[C@H]3c3ccccc32)cc1,i,0.35
O=C(O)C1CCCN1C(=O)Nc1ccc(Br)cc1 (stereo unspecified),i,0.59
CCn1c2ccccc2c2cc(NC(=O)c3nc4ccccc4nc3N3CCN(C)CC3)ccc21,i,0.82
Cc1ccc(-c2noc(Cc3nc(-c4ccc(Cl)cc4)cs3)n2)cc1,i,1.1
COc1ccccc1N1CCN(S(=O)(=O)c2ccc(Oc3ccccc3Cl)cc2)CC1,i,0.35
Cc1ccc(S(=O)(=O)N2CCC3(CC2)NCCN=C3NC(C)(C)C)c(C)c1,i,-0.24
O=C(CCN(CCc1ccccc1)C(=O)c1ccc(F)c(Cl)c1)N1CCNCC1,i,-1.21
Cc1ccc(C2CCCN2S(=O)(=O)c2cc(C)ccc2C)cc1 (stereo unspecified),i,-0.3
CN(CCCNC(=O)c1cc(=O)n(C)c2c1c(=O)n(C)c(=O)n2C)C1CCCCC1,i,-0.49
Cc1cc(C2CCCN2S(=O)(=O)c2ccccc2F)on1 (stereo unspecified),i,-0.32
Cc1ccc(C2=NN(c3nc(C)cs3)C(c3ccccc3F)C2)cc1 (stereo unspecified),i,1
COc1ccc(-c2cc(N)n(S(=O)(=O)c3ccc(Br)cc3)n2)cc1OC,i,0.55
O=S(=O)(Nc1cc(-c2ccoc2)no1)c1ccc2c(c1)CCC2,i,-0.22
O=C(NCCCc1ccccc1)C1CCN(c2nc3ccccc3[nH]2)CC1,i,-1.56
CC1Oc2cc(S(=O)(=O)N3CCN(C(=O)NCCc4ccccc4)CC3)c(Cl)cc2NC1=O (stereo unspecified),i,-1.2
Cc1ccc(-c2nc3sc(N(C)CC(=O)NCCc4c[nH]c5ccccc45)nn3c2NC(C)(C)C)cc1,i,1.29
CCCCC1CCC(C(=O)NCCc2csc(-c3ccc(OC)cc3)n2)CC1 (stereo unspecified),i,-1.27
O=C(CCCN1CCC(O)(c2ccc(Cl)cc2)CC1)c1ccc(F)cc1,i,0.19&-0.66&-0.13
Cc1[nH]c(C)c(S(=O)(=O)N2CCC(C(=O)N(C)C3CCCCC3)CC2)c1C(=O)N1CCCCC1,i,0.91
Cn1c2c(c3ccccc31)C(C(=O)NCc1ccccc1)N(C1CC1)C(=O)CS2 (stereo unspecified),i,0.78
CCCCC1C(=O)CC[C@H]2[C@@H]1CC(=O)[C@@H]2CCCCCCC(=O)O (stereo partly specified),i,0
CCOc1ccc(-c2[nH]ncc2CN2CCCC2c2cc(C(C)C)on2)cc1 (stereo unspecified),i,0.74
Cc1ccc(-c2cnc3c(-c4ccccc4)cnn3c2N)cc1,i,-0.88
O=C(c1ccc2noc(-c3ccc(Cl)cc3)c2c1)N1CCN(c2ccccc2F)CC1,i,-0.1
CCc1cc(C(Nc2nc(C)cc(C)n2)c2ccccc2)c(NC(=O)c2ccccc2)s1 (stereo unspecified),i,2.49
Cn1c(=O)sc2cc(N(S(C)(=O)=O)S(C)(=O)=O)ccc21,i,0.47
CCCCC[C@H](O)/C=C/[C@@H]1[C@@H](C/C=C/CCCC(=O)O)[C@@H](O)C[C@H]1O,i,-0.97&-0.18
COc1cc(Nc2ncc3c(n2)CCN(S(=O)(=O)c2ccc(Cl)cc2)C3)cc(OC)c1,i,-1.63
COc1ccc(CNC(=O)C2(C)CCCN(S(=O)(=O)c3ccc(C(C)(C)C)cc3)C2)cc1 (stereo unspecified),i,-0.13
O=C(Cc1ccccc1Nc1c(Cl)cccc1Cl)Oc1ccc(-c2cc(=S)ss2)cc1,i,0.18
Cc1cc(-c2c(-c3ccccc3)[nH]c3c2c(=O)n(C)c(=O)n3C)c(C)s1,i,0.32
Cc1ccc2cc(-c3noc(CCCC(=O)Nc4ccc(Cl)cc4)n3)c(=O)[nH]c2c1,i,-0.28
Cc1noc(C)c1S(=O)(=O)NCc1cccn1Cc1ccccc1,i,0.39
Cc1ccc(CNC(=O)C2CCN(c3nc4cccnc4s3)CC2)cc1,i,1.08
CCC(C)(C)NC(=O)c1ccc(-c2ccc(C)cc2)nc1,i,-0.89
COc1ccc(C2C3=C(CC(c4ccc(O)cc4)CC3=O)Nc3onc(C)c32)cc1 (stereo unspecified),i,1
CC1(C(=O)NC2CCCCC2)Cn2c(cc3ccccc32)C(=O)N1Cc1ccccc1 (stereo unspecified),i,-0.86

# Grouped by structure, the compounds so far with fluorine
SMILES,Choline anaer gr,Choline anaer gr early
CCOC(=O)c1cn(CC(=O)Nc2ccc(F)cc2F)c2nc(C)ccc2c1=O,i,1.2
O=C(NC1CC1)C1CCCN(c2ccnc(-c3ccc(F)cc3)n2)C1 (stereo unspecified),i,0.64
CC1(C(=O)NCc2ccccc2)CCCN(S(=O)(=O)c2ccc(F)c(Cl)c2)C1 (stereo unspecified),i,0.09
O=C(NCCCN1CCN(c2ccccc2F)CC1)c1cc(CN2CCOCC2)on1,i,-0.67
Cc1cc(C)c(S(=O)(=O)NCCc2sc(-c3ccc(F)cc3)nc2C)c(C)c1,i,1.25
Cc1sc(C)c(S(=O)(=O)N2CCCCC2)c1-c1cc(C(F)(F)F)on1,i,0.17
Cc1ccc(C2CC(=O)N(c3ccc(F)c(C)c3)C(=O)C2)cc1,i,1.03
Cc1noc(C)c1C1CCCN1C(=O)Cn1nc(C(F)(F)F)c2c1CCCC2 (stereo unspecified),i,-1.67
Cn1ccc2cc(S(=O)(=O)N3CCN(C(=O)Nc4ccc(Br)cc4F)CC3)ccc21,i,-0.22
O=S(=O)(c1ccccc1)N(CC(F)(F)F)c1ccc(C(O)(C(F)(F)F)C(F)(F)F)cc1,i,0.6&0.28
O=C(CCN(CCc1ccccc1)C(=O)c1ccc(F)c(Cl)c1)N1CCNCC1,i,-1.21
Cc1cc(C2CCCN2S(=O)(=O)c2ccccc2F)on1 (stereo unspecified),i,-0.32
Cc1ccc(C2=NN(c3nc(C)cs3)C(c3ccccc3F)C2)cc1 (stereo unspecified),i,1
O=C(CCCN1CCC(O)(c2ccc(Cl)cc2)CC1)c1ccc(F)cc1,i,0.19&-0.66&-0.13
O=C(c1ccc2noc(-c3ccc(Cl)cc3)c2c1)N1CCN(c2ccccc2F)CC1,i,-0.1

# Only part of the results is shown. The share of hits here may be higher or lower than overall.
